# High-throughput results (PubChem BioAssay)
# D2 potentiator – potentiates the human D2 dopamine receptor allosterically; P14416; DiscoveRx D2 beta-arrestin cells, luminescence, 90 min; 100% = 57 uM dopamine signal; potentiation, % (test concentration not listed); actives 0.23% (n = 360,000); AID 624464; active = potentiation of 50% or more; inconclusive = 30% to 50%; inactive = 30% or less;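 note: compound concentration not given in the record; tested on top of an EC20 dose of dopamine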
#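 D2 cells co-treated with compound plus 50 nM dopamine (EC20) for 90 min at 37 deg C to detect potentiation. Beta-arrestin recruitment was read as enzyme-fragment luminescence after 1 h at ambient temperature. Full response was set by 57 uM dopamine.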
# gsp antag – antagonizes gsp, the McCune-Albright syndrome mutation. gsp-mutant cells, cAMP HTRF, 30 min; control for the full effect not named in the record. Potency, µM (series often up to 76.9 µM), for inactives: top-dose activity change, negative = inhibition, actives largely listed as inhibitors. actives 0.4% (n = 340,000); active = falling curve of any shape with a large fitted effect; inconclusive = falling curve, mostly with a smaller effect; inactive = flat or rising curve; cell line not stated here;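 note: intracellular cAMP measured with PDE inhibitor Ro 20-1724 present during compound exposure; potency is the fitted concentration of half-maximal effect; % is set by controls: 0 for no effect and ±100 for the full control effect; nearly all actives have a fitted effect of over 65% in size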
#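 Measurement of cellular cAMP by homogeneous time-resolved fluorescence following a 30 min compound exposure at 37C. The PDE inhibitor […] was present throughout; the assay buffer was DPBS with 0.05% BSA and 0.005% Tween 20.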
# gsp agonist – gsp mutant agonism | actives 0.13% (n = 340,000) | AID 624287 | gsp mutant cells, cAMP HTRF, 30 min; control for the full effect not named in the record | Potency, µM (series often up to 76.9 µM), inactives show at the top dose activation (cAMP increase), usual class: activators; active = well fitted activation curve with a large enough effect; inconclusive = small, poorly fitted or top-dose-only effect, or another doubt; inactive = no such curve, though single readings can be large or run the other way; cell line not stated here;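 note: phosphodiesterase inhibitor Ro 20-1724 added with compounds to block cAMP breakdown; potency is the fitted concentration of half-maximal effect; nearly all actives have a fitted effect of over 60% in size; about a fifth of the inactives were tested at one dose only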
#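 Cells stably selected in G418 were plated at 2000/well, grown 16-24 hr, then given compounds in DMSO with the PDE inhibitor […] (300 uM solution added) for 30 min at 37C; cAMP was read by HTRF.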
# D2 ag – activates the human D2 dopamine receptor; P14416; DiscoveRx PathHunter D2 beta-arrestin, luminescence, 90 min; 100% = 57 uM dopamine signal; activation, % (no concentration beside the values); actives 0.084% (n = 360,000); AID 624465; in the data active = activation above about 40%; inconclusive = about 15% to 40%; inactive = below about 15%; note: compound concentration not given in the record; the text of the record calls up to 30% inactive
#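 DiscoveRx PathHunter D2 beta-arrestin cells (2,100/well) attached overnight, then compound-stimulated 90 min at 37 C in HBSS/10 mM HEPES/0.1% Tween-20 buffer; beta-galactosidase complementation read by luminescence after 1 h at ambient temperature. Dopamine 57 uM final (EC100) as control.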
# CtBP-E1A blk – CtBP/E1A binding inhibition; AlphaScreen GST-E1A/His-CtBP binding, 1536-well; active compounds read low; control for the full effect not named in the record; activity change, % (no concentration beside the values); actives 0.49% (n = 340,000); in the data active means activity change below about -65%; inconclusive means about -30% to -65%; inactive means above about -30%; note: % is set by controls: 0 for no effect and ±100 for the full control effect
#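 Homogeneous bead-based format: GST-tagged E1A captured on glutathione donor beads, His-tagged CtBP on nickel acceptor beads; compounds precede bead addition by 2 h at 37 °C.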
# Six1-Eya2 blk – blocks human Six1 binding to Eya2 | AID 651725 | actives 0.56% (n = 360,000) | AlphaScreen GST-Six1/His-Eya2 binding, biochemical; active compounds read low; control for the full effect not named in the record | activity change, % (concentration not given with the values) | Q15475+O00167; in the data active = activity change below about -65%; inconclusive = about -30% to -65%; inactive = above about -30%; note: % is set by controls: 0 for no effect and ±100 for the full control effect
# Target sequence (O00167 whole entry, looked up): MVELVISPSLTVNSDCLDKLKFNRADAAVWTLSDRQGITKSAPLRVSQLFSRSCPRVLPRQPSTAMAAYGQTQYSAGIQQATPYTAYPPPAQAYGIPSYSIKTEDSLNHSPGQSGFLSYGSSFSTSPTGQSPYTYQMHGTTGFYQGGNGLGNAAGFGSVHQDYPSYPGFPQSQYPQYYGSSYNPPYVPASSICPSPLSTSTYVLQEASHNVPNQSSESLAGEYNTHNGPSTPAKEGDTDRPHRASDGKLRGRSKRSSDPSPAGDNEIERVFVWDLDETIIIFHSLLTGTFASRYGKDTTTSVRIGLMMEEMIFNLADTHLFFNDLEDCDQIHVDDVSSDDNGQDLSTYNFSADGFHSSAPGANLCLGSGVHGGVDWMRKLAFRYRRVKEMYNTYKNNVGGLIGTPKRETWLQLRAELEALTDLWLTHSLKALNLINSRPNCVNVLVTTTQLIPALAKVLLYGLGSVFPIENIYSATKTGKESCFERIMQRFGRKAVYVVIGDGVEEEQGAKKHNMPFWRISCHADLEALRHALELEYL
# Target sequence (Q15475 whole entry, looked up): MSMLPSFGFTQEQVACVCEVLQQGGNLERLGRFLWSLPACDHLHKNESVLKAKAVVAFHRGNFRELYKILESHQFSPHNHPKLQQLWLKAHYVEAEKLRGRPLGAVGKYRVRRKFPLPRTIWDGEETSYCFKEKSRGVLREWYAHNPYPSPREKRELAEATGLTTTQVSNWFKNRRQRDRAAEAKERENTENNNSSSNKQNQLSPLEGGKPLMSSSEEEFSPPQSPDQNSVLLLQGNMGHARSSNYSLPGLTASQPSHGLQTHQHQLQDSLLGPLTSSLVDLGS
#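 AlphaScreen luminescence read after one hour at 37 °C in darkness. Pin-transferred compounds met GST-Six1 and His-Eya2 protein (5X stock 250 nM/500 nM) plus glutathione donor and Ni-chelate acceptor beads (5X, 50 ug/mL).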
# Active calls of the source: *; ? = inconclusive; . = not tested or not shown; & = joins results of further samples; [ ] = another dose, or the depositor's remark.
SMILES,D2 potentiator,CtBP-E1A blk,gsp agonist,Six1-Eya2 blk,D2 ag,gsp antag
NC(=O)Nc1ccc(C(=O)OCC(=O)c2c[nH]c3ccccc23)cc1,-7,-6,-23%,-7,0.1,-3%
CCN(C(=O)CN1CCOCC1)c1c(N)n(Cc2ccccc2)c(=O)[nH]c1=O,-6,2,-9%,7,-2.9,13%
COC(=O)CCN1CCC(c2cc(-c3cccc(C(F)(F)F)c3)n[nH]2)CC1,-10,0,28%,12,-3.4,10%
COc1ccccc1N1Cc2ccccc2C1,-16,-2,-18%,0,0.2,0%
O=C(NCc1ccccc1Cl)C1CCCN1C(=O)NC1CCCCC1 (centres undefined),-1,10,1%,-3,-1.5,-6%
Cc1nc2sc(C(c3cccs3)N3CCN(C(=O)c4ccco4)CC3)c(O)n2n1 (centres undefined),-1,-5,-44%[inhibitor],2,1.3,-2%
CN(C)c1cccc(C(=O)NCCCn2ccc3ccccc32)c1,-5,?,6%[15.4 µM],-21,-1.2,-3%
COc1ccc(OC(C)C(=O)NC2CC(C)(C)NC(C)(C)C2)cc1 (centres undefined),-3,5,7%,6,0.1,-6%
COc1ccc(CCC(=O)OCc2csc(CC(=O)Nc3ccccc3C)n2)cc1,-11,3,?,2,-2.2,3%
CC[N+](C)(CC)CC(O)COCC1COc2ccccc2O1 (centres undefined),-9,2,-13%,9,-6.5,0%
Cn1c(SCC(=O)Nc2ccc3cn[nH]c3c2)nnc1-c1cccs1,-25,-5,1%,1,4.5,-12%
CCN(CC)S(=O)(=O)c1ccc2c(c1)N(CC(=O)N1CCC(C(N)=O)CC1)C(=O)CO2,1,-1,?,1,-0.2,-10%
O=C(Nc1cccc(S(=O)(=O)N2CCCCC2)c1)c1cc(=O)[nH]c2ccccc12,-3,4,-3%,-11,-3.7,2%
Cc1ccccc1C(=O)NCC(=O)OC(C)C(=O)NC(C)CCc1ccccc1 (centres undefined),-5,.,8%,4,-0.4,-17%
O=C(COC(=O)c1cccc(S(=O)(=O)N2CCOCC2)c1)Nc1ncc(C(F)(F)F)cc1Cl,-13,1,?,-3,-0.8,-3%
Cc1csc(=Nc2ccc(S(=O)(=O)N3CCOCC3)cc2)n1Cc1ccco1,-3&-16,?,1%&-4%,?,2.6&1.5,-6%&-13%
CCN(CC)C(=O)[C@H]1CC(CC(=O)NCc2ccc(OC)c(OC)c2)C(=O)N2CCc3c([nH]c4ccccc34)[C@]12C (some centres undefined),.,-5,.,-1,-0.3,0%
Cc1c(NC(=O)c2ccccc2)cccc1[N+](=O)[O-],-4,4,0%,7,-0.6,7%
CN(C)S(=O)(=O)c1cccc(NC(=S)NC2CCCCC2)c1,-6,0,1%,2,1.3,-6%
C=CCN(c1ccccc1)S(=O)(=O)c1cccc(C(=O)NCC(c2cccs2)N2CCOCC2)c1 (centres undefined),-20,-2,15%,0,3.1,-17%
COc1cc(CNCCN(C)C)c(Br)cc1OCC(=O)NCc1ccccc1,0,20,-58%[inhibitor],0,-4.5,11%
CCOc1ccc(CNC(=O)C2CCN(S(=O)(=O)N3CCC(C)CC3)CC2)cc1OC,-4,3,-28%,0,-3.1,.
CC(C(=O)N1CCOCCOCCOCCOCCOCC1)N1C(=O)c2ccccc2C1=O (centres undefined),-4,-4,-3%[15.4 µM],-3,5.9,9%
O=C(Cc1ccc([N+](=O)[O-])cc1)c1ccc(O)cc1O,-8,-4,-2%,-2,-1.5,-10%
O=C(N/N=C/c1cc([N+](=O)[O-])cc([N+](=O)[O-])c1O)C(O)(c1ccccc1)c1ccccc1,-5,?,1%,?,-6.7,-17%
CCOc1ccc(NC(=O)CN2C(=O)NC(CCc3ccccc3)C2=O)cc1OCC (centres undefined),-12,6,-2%,1,-2.2,8%
COc1ccc([C@H]2CC(=O)C=C(c3cccc(C#N)c3)C2)cc1,-3,1,.,0,1.2,-5%
CC(C)(C)n1nnnc1C(c1cccc(C#N)c1)N1CCC(Cc2ccccc2)CC1 (centres undefined),-11,-1,0%,-5,-2.5,-10%
CC1(CC(=O)N/N=C/c2ccc(-c3cccc(C(F)(F)F)c3)o2)OCCO1,-15,6,-9%[15.4 µM],-2,-2.7,-4%
CCCCCC(=O)N1CCN(S(=O)(=O)c2ccc3c(c2)OCCO3)CC1,-2,-1,1%[15.4 µM],1,0.9,10%
CCn1c(CNC(=O)c2ccccc2F)nnc1SCC(=O)NC1CCCCC1,-4,.,-3%,1,-0.9,50%[activator]
COc1ccc(NC(=S)NNC(=O)OC(C)(C)C)cc1OC,-12,41,-3%,3,-3.2,-1%
CCOc1ccc(N(CC(=O)NCCOc2ccccc2OC)S(=O)(=O)c2ccccc2)cc1,-31,5,-7%,-4,-6.4,-14%
COc1ccc(CCNC(=O)CSc2nc(N)cc(=O)[nH]2)cc1OC,2,2,16%,-10,3.3,1%
CCN(CC)c1ncnc2sc(C(=O)N3CCN(c4ccccc4)CC3)c(C)c12,-7,0,11%,-5,0.4,-12%
COCCN1C=C(C(=O)OC)C(c2ccccc2Cl)C(C(=O)OC)=C1,-4,1,0%[15.4 µM],16,-2.9,-12%
CCOc1cc(C2C(C#N)=C(N)Oc3n[nH]c(C)c32)ccc1OCCN1CCOCC1 (centres undefined),-20,1,-21%,-10,-4.2,-14%
CC(Sc1nnc(-c2ccc(Cl)cc2)n1N)C(=O)NCC1CCCO1 (centres undefined),21,-2,0%,2,2.9,-6%
COc1ccc(CCNC(=O)COC(=O)/C=C/c2ccc(OC)cc2OC)cc1,-6,0,-35%[inhibitor],0,2.5,-12%
Cc1cc(NC(=O)CSc2nnc(-c3c[nH]c4ccccc34)n2-c2ccc(Cl)cc2)no1,-3,2,-35%,0,4.4,-1%
CCOc1ccc(C(=O)NCC(=O)OCc2c(F)cccc2Cl)cc1,-15,15,-2%,-1,-0.3,-5%
COc1cc2c(cc1OC)C(C(=O)NCc1ccco1)C1c3ccccc3CCN1C2=O (centres undefined),-12,-2,-4%,1,-4.0,-9%
CCc1ccc(N=Nc2ccc(O)c3[nH]cnc23)cc1,-21,?,-31%[inhibitor],?,-12,-6%
CCC(C(=O)Nc1ccc([N+](=O)[O-])cn1)c1ccccc1 (centres undefined),10,-20,0%[15.4 µM],2,4.8,-6%
CC(C)(CO)NCC#Cc1ccccc1,-6,.,-53%[inhibitor],6,-1.6,9%
Cc1cc(C)nc(NN=C2CCCC2)n1,-4,19,9%,9,-3.5,10%
CC(C)CCC(=O)N1CCOC1=O,-1,3,12%,0,-3.7,13%
CCC(=O)Nc1ccc(C(=O)c2ccccc2)cc1,-1,8,3%,1,-3.4,-4%
O=C1NC2(CCc3ccccc3C2)C(=O)N1CCOc1cccc(Cl)c1 (centres undefined),0,8,-10%[15.4 µM],7,1.9,12%
CCC(CC)C(=O)OCC(=O)C1(O)CCC2C3CCC4=CC(=O)CCC4(C)C3C(O)CC21C (centres undefined),8,5,-17%,-2,8.0,?
Cc1ccc(CCN2CC(C(=O)O)CC2=O)cc1 (centres undefined),1,5,-31%[inhibitor],8,2.4,1%
CCC(SCC(=O)OC)C(=O)Nc1nnc(C(C)C)s1 (centres undefined),-11,-3,-23%,0,-3.3,7%
CCN(CC)c1ccc(NC(=O)C2CC(=O)N(Cc3ccccc3)C2)cc1 (centres undefined),-1,4,21%[15.4 µM],-10,3.7,?
CCC(=O)/C(=C(/O)c1ccccc1)c1nc2ccccc2[nH]1,2,3,-30%[inhibitor],8,3.9,2%
COc1cc(/C=C(/NC(=O)c2ccccc2)C(=O)N2CCOCC2)c([N+](=O)[O-])cc1OC,-1,-8,?,1,-5.3,-1%
Cn1cccc1CC(=O)N/N=C/C(Cl)=C/c1ccccc1,-10,-19,17%,-11,-0.3,17%
Cc1cccc(C)c1-n1nnnc1SCC(=O)c1c(N)n(C2CC2)c(=O)[nH]c1=O,-3,5,-26%,8,4.5,1%
CCN(CC(=O)NCc1ccc(Cl)cc1)C(=O)CSCC(=O)Nc1cccc(C)c1,-12,4,17%,17,3.7,-10%
CN1CCN(CCOC2Cc3ccccc3Sc3ccc(Cl)cc32)CC1 (centres undefined),-37,-16,3%,-9,-2.4,-1%
CCN=C1S/C(=C\c2cc(Br)ccc2OCC(=O)OCC)C(=O)N1CC,-4,9,-3%,0,2.5,?
COc1ccc(-c2cc(C)no2)cc1S(=O)(=O)NCC1CCN(Cc2cc(C)ccc2C)CC1,-34,-16,-8%,-10,-3.3,8%
COCc1cc(=O)[nH]c(/N=C(\N)Nc2cccc(C)c2)n1,0,-6,-3%,1,-0.9,8%
